# gsp antagonist: qHTS for Antagonists of gsp, the Etiologic Mutation Responsible for Fibrous Dysplasia/McCune-Albright Syndrome: qHTS. gsp-mutant cells, cAMP HTRF, 30 min; control for the full effect not named in the record. Potency, µM (doses to about 76.9 µM), for inactives: top-dose activity change, negative = inhibition, most hits filed as inhibitors. hit rate 0.4% among 340,000. AID 624288, 2012; active = falling curve of any shape with a large fitted effect; inconclusive = falling curve, mostly with a smaller effect; inactive = flat or rising curve; cell line not stated here;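 also: intracellular cAMP measured with PDE inhibitor Ro 20-1724 present during compound exposure; potency is read from the fitted curve at half-maximal effect; % is scaled to controls: 0 for no effect and ±100 for the full control effect; nearly all actives have a fitted effect of over 65% in size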
#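 Cells, 2000/well, grown 16–24 h in DMEM 10% FBS with 0.5 mg/ml G418, then compounds plus […] (300 uM addition stock), 30 min at 37C. cAMP read by HTRF (cAMP-d2 and anti-cAMP antibody-K in lysis buffer) after 30 min RT.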
# gsp agonist: qHTS for Agonist of gsp, the Etiologic Mutation Responsible for Fibrous Dysplasia/McCune-Albright Syndrome: qHTS. gsp mutant cells, cAMP HTRF, 30 min; control for the full effect not named in the record. Potency, µM (top dose mostly 76.9 µM), without a hit: at the top dose activation (cAMP increase), actives largely listed as activators. hit rate 0.13% among 340,000; active = well fitted activation curve with a large enough effect; inconclusive = small, poorly fitted or top-dose-only effect, or another doubt; inactive = no such curve, though single readings can be large or run the other way; cell line not stated here;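 also: phosphodiesterase inhibitor Ro 20-1724 added with compounds to block cAMP breakdown; potency is read from the fitted curve at half-maximal effect; nearly all actives have a fitted effect of over 60% in size; about a fifth of the inactives were tested at one dose only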
#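 Cells stably selected in G418 were plated at 2000/well, grown 16-24 hr, then given compounds in DMSO with the PDE inhibitor […] (300 uM solution added) for 30 min at 37C; cAMP was read by HTRF.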
# Sfp inh: qHTS Assay for Inhibitors of Bacillus subtilis Sfp phosphopantetheinyl transferase (PPTase); 4'-phosphopantetheinyl transferase ffp (Bacillus subtilis), Q9F4F7; Biochemical Sfp PPTase activity, qHTS; Potency, µM, for the others: max response, negative = inhibition, most hits filed as inhibitors; hit rate 3.5% among 310,000; active = well fitted inhibition curve with a large enough effect; inconclusive = small, poorly fitted or top-dose-only effect, or another doubt; inactive = no such curve, though single readings can be large or run the other way;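 also: the enzyme is Sfp with the accession as filed and its product quenches rhodamine fluorescence; potency is read from the fitted curve at half-maximal effect; 0% = enzyme reaction without inhibitor and -100% = no enzyme wells; top concentration of the series not given in the record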
#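 Fluorescence-quenching assay with 15 nM Sfp, 5 uM rhodamine-CoA and 12.5 uM BHQ-2-labelled ybbR peptide in pH 7.6 Hepes/MgCl2 buffer. Enzyme was pre-incubated with compound for 15 min at room temperature. Rate was taken from the 30-min fluorescence change (525/598 nm).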
# ClpP mod: qHTS Assay for Activators of ClpP; ATP-dependent Clp protease proteolytic subunit (Bacillus subtilis (strain 168)), P80244; hit rate 1.9% among 340,000; Potency, µM (series often up to 57.5 µM), inactives show at the highest dose activity change, negative = active; purified B. subtilis ClpP, FRET peptide cleavage, 20 min; active = well fitted falling curve with a large enough effect; inconclusive = small, poorly fitted or top-dose-only effect; inactive = no such curve, though single readings can be large or run the other way; also: potency is read from the fitted curve at half-maximal effect; the source files actives as falling curves though it sought activators and does not explain the sign; nearly all actives have a fitted effect of over 65% in size; many hits overshoot -100%
# Target sequence (P80244 whole entry, looked up): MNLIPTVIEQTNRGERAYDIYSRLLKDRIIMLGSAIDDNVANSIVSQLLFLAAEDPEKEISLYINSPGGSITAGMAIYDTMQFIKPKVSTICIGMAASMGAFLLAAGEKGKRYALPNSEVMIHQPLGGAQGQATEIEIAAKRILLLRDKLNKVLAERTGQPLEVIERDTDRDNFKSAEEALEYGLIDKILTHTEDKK
#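 ClpP 10 microg/mL final, pH 8 Tris/KCl buffer with BSA, glycerol, Tween-20; compound pinned in; FRET-FV substrate; RT 20 min; Ex320/Em430; ΔFRET vs ADEP 5.8 microM, DMSO, no enzyme.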
# Menin-MLL FL inh: qHTS Assay for Inhibitors Targeting the Menin-MLL Interaction in MLL Related Leukemias: Competition With Fluorescein Labeled MLL-derived Peptide. Fluorescence polarization, fluorescein-MLL peptide displacement from menin. FP activity change, % at 61.4 µM. 290,000 tested, under 10 active. AID 1766, 2009; inconclusive = falling polarisation curve, or a change in total fluorescence; inactive = total fluorescence flat and polarisation flat or rising; no compound was filed as active; the % refers to the polarisation; negative = inhibition;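 also: % of control where 0% means no effect; inhibitors lower the polarisation; unlabelled MLL peptide was the positive control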
# TRPV1 PAM: HTS Assay for Compounds that Act as Potentiators of the Vanilloid Receptor 1; TRPV1-expressing cells, Fluo-8 calcium influx, capsaicin EC20 potentiation; host cell line not named in the record; control for the full effect not named in the record; hit rate 0.02% among 320,000; potentiation, % at 8.33 µM; AID 540277, 2011; active means potentiation above 80%; inconclusive means 30% to 80%; inactive means below 30%; also: 0% is about no effect
# Target sequence (Q8NER1 whole entry, looked up): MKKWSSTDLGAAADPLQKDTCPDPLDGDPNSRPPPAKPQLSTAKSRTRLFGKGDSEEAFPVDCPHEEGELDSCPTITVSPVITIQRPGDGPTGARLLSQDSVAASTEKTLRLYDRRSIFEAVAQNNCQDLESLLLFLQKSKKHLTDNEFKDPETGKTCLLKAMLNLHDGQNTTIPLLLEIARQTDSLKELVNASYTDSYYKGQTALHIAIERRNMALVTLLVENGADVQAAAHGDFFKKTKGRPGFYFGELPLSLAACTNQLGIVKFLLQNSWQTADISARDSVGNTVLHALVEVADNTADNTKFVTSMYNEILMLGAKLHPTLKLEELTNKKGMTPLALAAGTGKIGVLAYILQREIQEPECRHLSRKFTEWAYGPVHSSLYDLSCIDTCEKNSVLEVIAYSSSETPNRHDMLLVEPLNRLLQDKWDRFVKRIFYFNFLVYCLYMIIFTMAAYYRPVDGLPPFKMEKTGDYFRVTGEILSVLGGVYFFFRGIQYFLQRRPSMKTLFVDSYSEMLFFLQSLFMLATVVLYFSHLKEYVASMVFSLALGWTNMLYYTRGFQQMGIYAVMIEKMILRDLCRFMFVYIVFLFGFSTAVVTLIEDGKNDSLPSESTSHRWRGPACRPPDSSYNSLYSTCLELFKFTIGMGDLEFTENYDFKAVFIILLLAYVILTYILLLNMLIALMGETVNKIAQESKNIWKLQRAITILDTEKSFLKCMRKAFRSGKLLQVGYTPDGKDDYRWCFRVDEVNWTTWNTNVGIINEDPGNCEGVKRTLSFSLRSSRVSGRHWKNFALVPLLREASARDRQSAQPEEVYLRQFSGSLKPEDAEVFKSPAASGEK
#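 Fluo-8 calcium influx in TRPV1-expressing cells, kinetic read (ex 480/em 520 nm). Compound added and read 3 min for agonist activity, followed by capsaicin at EC20 final and 2 min further read for enhancement.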
# D2 PAM: Beta-Arrestin HTS for Positive Allosteric Modulators of the Human D2 Dopamine Receptor: Potentiators | hit rate 0.23% among 360,000 | AID 624464, 2012 | DiscoveRx D2 beta-arrestin cells, luminescence, 90 min; 100% = 57 uM dopamine signal | potentiation, % (test concentration not listed) | D(2) dopamine receptor (Homo sapiens), P14416; active = potentiation of 50% or more; inconclusive = 30% to 50%; inactive = 30% or less;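 also: compound concentration not given in the record; tested on top of an EC20 dose of dopamine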
#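 PathHunter D2 cells, attached overnight at 37 deg C, received compound in DMSO plus dopamine at EC20 (50 nM final) for 90 min at 37 deg C. Beta-arrestin recruitment was read as luminescence after 1 h with detection reagent at ambient temperature.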
# Starred values were filed as active, the others as inactive; u = inconclusive; x = not tested or not shown; [ ] = remark or other dose. An unsorted share of the library. About 5.1% of those tested had a hit in this group.
SMILES,gsp antagonist,gsp agonist,Sfp inh,ClpP mod,Menin-MLL FL inh,TRPV1 PAM,D2 PAM
CCn1cc(C(=O)NN)c(=O)c2cc(F)c(N3CCN(C)CC3)cc21,-13%,-4%,10%,4.5%,0.0,-6,-15
O=C(N/N=C/C=C\c1ccccc1[N+](=O)[O-])c1ccccn1,-15%,-2%[15.4 µM],-27%,x,-0.7,-10,-16
Cc1cccc(-n2ccnc2SCC(=O)Nc2ccc3c(c2)OCCO3)c1,-7%,7%,3%,-1.8%,0.0,-16,-5
CCN(CC)C(=O)C1CCCN(Cc2ccc(F)c(F)c2)C1 (stereo not given),14%,-11%,-13%,2.4%,5.1,17,-11
O=C1CCC/C(=N\NC(=O)NC2CCCCC2)C1,3%,-9%,11%,x,-1.2,-11,4
Cc1cc(C)n(-c2nnc(C)n2/N=C/c2ccccc2F)n1,7%,14%,-3%,0.0%,2.4,5,-4
O=C(c1ccc(F)cc1)c1cc2ccccc2o1,2%,u,11%,1.2%,-0.5,-16,0
COC(=O)c1cccc(NC(=O)Nc2ccc(Cl)c(Cl)c2)c1,35µM*,-1%,5%,-0.8%,0.4,-35,0
CCc1cc2c(NCC3CCCO3)ncnc2s1 (stereo not given),u,u,10%,-4.4%,2.6,0,6
Cn1c(=O)cc(SCC(=O)NCc2ccc(F)cc2)c2ccccc21,-1%,22%,21%,x,-2.4,-2,4
COc1ccccc1C1CC(c2ccc(F)cc2)Nc2ncnn21 (stereo not given),18%,-17%,u,0.5%,0.4,4,-10
CC(C)c1cccc(C(C)C)c1NC(=O)COC(=O)c1ccc2c(c1)S(=O)(=O)c1ccccc1C2=O,6%,-12%,11%,-1.7%,6.7,1,13
Cn1c(CNS(=O)(=O)c2ccc(Br)cc2)n[nH]c1=S,15%,-30%[inhibitor],1%,-1.4%,3.1,-1,-9
COc1ccc(OC)c(CN2CCC(Cc3ccccc3)CC2)c1,16%,15%,-22%,-0.3%,-5.3,19,-25
CCN(CC)CCC(c1ccc(N(C)C)cc1)c1c(OC)cc(OC)c2ccc(=O)oc12 (stereo not given),2%,x,0%,-3.8%,4.0,1,-22
COc1ccccc1NC(=O)Nc1ccccc1C#N,11%,-6%[15.4 µM],18%,1.0%,1.8,0,-6
O=C(COC(=O)Cc1ccc(Br)cc1)NC1CCCCCC1,3%,-10%[15.4 µM],11%,x,-1.0,-11,-4
Cc1cnc(C(=O)OCC(=O)Nc2sc3c(c2C#N)CCC3)cn1,9%,-10%,x,0.2%,x,-2,-10
COC(=O)[C@]1(Cc2ccccc2)N[C@H](CN(C)C(=O)Nc2ccc(C(F)(F)F)cc2)[C@@H]2C(=O)N(Cc3ccccc3)C(=O)[C@@H]21,-5%,x,x,2.8%,x,x,2
O=C(COC(=O)c1cc(-c2ccco2)nc2ccccc12)NCc1ccc2c(c1)OCO2,-21%,-28%,-17%,u,6.5,-4,-37
CN1CCN(S(=O)(=O)c2ccc(N3CCN(S(=O)(=O)c4cccs4)CC3)nc2)CC1,9%,0%,3%,u,2.2,-10,-3
Cc1ccc(C(=O)COC(=O)C2CC(=O)N(c3nc(-c4ccccc4)cs3)C2)cc1C (stereo not given),1%,0%,14%,0.8%,0.7,4,-4
COc1ccc(NC(=O)c2cccc(-n3c(C)ccc3C)c2)c(OC)c1,-1%,0%,4%,2.6%,7.7,24,-13
Oc1cccc(Nc2nc(NCC3CCCO3)c3ccccc3n2)c1 (stereo not given),23%,21%,u,-6.4%,0.2,-18,-7
CC(c1ccco1)N(C(=O)c1cc(Cl)cc(Cl)c1)c1ccccn1 (stereo not given),-4%,7%[15.4 µM],18%,x,2.4,-7,-10
SMILES,gsp antagonist,gsp agonist,Sfp inh,ClpP mod,Menin-MLL FL inh,TRPV1 PAM,D2 PAM
CCOC(=O)CC(=O)Nc1nnc(C(C)C)s1,7%,11%,0%,-1.1%,-2.0,0,1
Cc1ccccc1N1C(=O)C2ON(c3ccccc3)C(c3cccnc3)C2C1=O (stereo not given),-10%,-32%[inhibitor],0%,1.0%,2.4,-8,-3
O=C(c1ccccc1)N1CCN(C(=O)c2cc3nc(-c4ccccc4)cc(C(F)(F)F)n3n2)CC1,-16%,21%,-15%,x,-17,3,-6
CCC(c1nnc(SCC(=O)NCCc2ccc(Cl)cc2Cl)o1)N(C)C (stereo not given),14%,-35%[inhibitor],u,2.9%,4.0,-1,-5
CCOCCCNC(=S)N(Cc1ccccc1)Cc1nc2ccccc2c(=O)[nH]1,-7%,19%[15.4 µM],u,0.3%,-1.8,-32,-8
CCOc1ccc(OCC)c(NC(=O)CSc2nnnn2CC)c1,-14%,-32%[inhibitor],8%,-1.2%,3.3,7,-16
CCN(C(=O)COC(=O)c1ccccc1NCCO)c1cccc2ccccc12,-3%,-68%[15.4 µM],x,x,x,-20,-5
CN(Cc1ccccc1C(F)(F)F)C(=O)C1CCC(=O)N(CC2CCCCC2)C1 (stereo not given),x,u,x,0.4%,x,x,-6
COc1cc2[nH]c(=O)n(CCC(=O)N3CCN(c4cccc(C)c4C)CC3)c(=O)c2cc1OC,3%,-10%,14%,-20%,1.4,3,-1
Cc1cccc(C)c1NC(=O)COC(=O)CSc1nnc(N)s1,14%,-32%[inhibitor],-11%,-29%,0.4,7,-22
CC(=O)C(Cc1ccccc1)NC(=O)CN1CCc2ccccc2C1 (stereo not given),-9%,3%[15.4 µM],7%,x,1.8,-7,-15
COc1ccc(OC)c(NC(=O)c2cc(OC(C)=O)cc(C(=O)Nc3cc(OC)ccc3OC)c2)c1,u,-44%[inhibitor],-2%,-21%,0.4,-5,u
Cc1cccc(CN2CCC(C(=O)Nc3ccc(Oc4cccnc4)cc3)CC2)c1,4%,-4%,4%,-1.4%,-1.3,-2,-33
CN(C)C(=O)Cn1c(SCC(=O)Nc2ccc3c(c2)OCO3)nc2ccccc21,-3%,-35%[inhibitor],15%,16µM*,3.3,4,-9
O=C(NC1CCCCC1NC(=O)c1cccs1)c1cccs1 (stereo not given),13%,13%,-1%,-4.0%,2.0,-2,-5
Cc1ccc(S(=O)(=O)c2nc(S(C)(=O)=O)sc2N2CCCC2)cc1,-5%,u,17%,1.6%,x,4,-4
CCCCN(C(=O)c1c(-c2ccccc2)noc1C)c1c(N)n(CCC)c(=O)[nH]c1=O,7%,-66%[inhibitor],x,-1.2%,x,x,-3
O=C(c1ccccc1F)N(Cc1nc2ccccc2c(=O)[nH]1)C1CCCC1,-6%,-1%,-2%,-13%,-0.3,19,-5
COc1ccc(CN(CC(=O)NCc2ccc(F)cc2)C(=O)c2csnn2)cc1,10%,u,16%,x,0.9,-7,-8
Cc1ccc(NC2Nc3cc(C)nn3S2)c(C)c1 (stereo not given),2%,-3%[15.4 µM],11%,x,-4.1,9,-9
CCCCn1c(N)c(N(CCOC)C(=O)C2CCN(S(=O)(=O)c3ccc(F)cc3)CC2)c(=O)[nH]c1=O,6%,-8%,x,-3.5%,x,8,-5
COc1ccc(CNC2CCSc3ccccc32)cc1OC (stereo not given),7%,-15%[15.4 µM],-9%,-0.8%,-0.8,3,-11
COc1ccc(Br)cc1CN1CCCCCC1,-2%,-30%[inhibitor],13%,x,-2.6,-3,-7
CCCCn1c2nc3ccccc3nc2c2c(=O)n(CCC)cnc21,-13%,2%,16%,u,3.8,-10,-4
CCc1nn(CCCC(=O)N2CCN(c3cccc(C)c3C)CC2)c(=O)c2cc3occc3n12,u,u,-9%,-0.3%,3.2,9,-13
SMILES,gsp antagonist,gsp agonist,Sfp inh,ClpP mod,Menin-MLL FL inh,TRPV1 PAM,D2 PAM
CCOC(=O)c1ccccc1NC(=O)CN1CCC(n2nnc3cc(F)ccc32)CC1,-12%,0%,x,-1.6%,x,x,-11
COc1ccc(C(=O)N2CCC(c3ccccc3)CC2)c(OC)c1OC,-3%,-8%[15.4 µM],4%,x,-5.0,-6,-10
CCC(=O)NC(c1ccccc1Cl)c1c(O)ccc2ccccc12 (stereo not given),-25%,-34%[inhibitor],-4%,-27%,-1.4,-7,-1
O=C(O)CC(CC(=O)Nc1ccc(C(=O)O)cc1)c1ccccc1 (stereo not given),4%,u,15%,0.1%,0.6,x,3
O=C(Nc1cc([N+](=O)[O-])ccc1N1CCCC1)c1cccs1,-10%,u,-9%,0.0%,x,-3,-26
Nn1c(SCc2nc3ccccc3[nH]2)nnc1-c1cccnc1,14%,u,0%,-1.6%,1.1,-6,-2
COc1ccc2nc3oc(C(=O)NCCCOC(C)C)cc3cc2c1,50µM*,u,7%,3.8%,-1.9,5,-6
CCN(CC)CCN1C(=O)C(=O)/C(=C(/O)c2c(C)[nH]c(C(=O)OC)c2C)C1c1ccco1 (stereo not given),-4%,-6%,9%,0.3%,-8.8,1,-6
CCOc1ccc(CCNC(=O)COC(=O)CNS(=O)(=O)c2ccc(NC(C)=O)cc2)cc1OCC,8%,16%,x,-2.9%,x,2,5
Cc1cc(C)c(S(=O)(=O)N2CCN(C(=O)c3ccccc3OCc3c(C)noc3C)CC2)c(C)c1,u,-16%,x,0.8%,x,x,2
COc1cc(N)c(Cl)cc1C(=O)OCC(=O)NC1CCCC1,-1%,-27%,8%,x,1.6,u,-3
O=C(COc1ccccc1)NCc1n[nH]c(=S)n1-c1ccccc1,x,-1%[15.4 µM],3%,x,3.0,10,-17
COC(=O)c1cnn(-c2ccccc2)c1C(OC)OC,9%,-8%[15.4 µM],-4%,-1.3%,1.9,-9,0
O=C(CCC(=O)N1CCSc2ccccc21)NC1CCCCC1,4%,0%,7%,0.0%,-3.2,-10,-2

# Source: PubChem
